Screening results (PubChem)
VDR inhibitor: Inhibitors of the vitamin D receptor (VDR): qHTS. Potency, µM, inactives show max response, negative = inhibition, usual class: inhibitors. Vitamin D3 receptor (Homo sapiens), P11473. VDR-SRC2-3 peptide fluorescence polarization, 2 h. actives 0.93% (n = 400,000); active means well fitted inhibition curve with a large enough effect; inconclusive means small, poorly fitted or top-dose-only effect, or another doubt; inactive means no such curve, though single readings can be large or run the other way; further: series mostly up to about 120 µM
Target sequence (P11473 whole entry, looked up): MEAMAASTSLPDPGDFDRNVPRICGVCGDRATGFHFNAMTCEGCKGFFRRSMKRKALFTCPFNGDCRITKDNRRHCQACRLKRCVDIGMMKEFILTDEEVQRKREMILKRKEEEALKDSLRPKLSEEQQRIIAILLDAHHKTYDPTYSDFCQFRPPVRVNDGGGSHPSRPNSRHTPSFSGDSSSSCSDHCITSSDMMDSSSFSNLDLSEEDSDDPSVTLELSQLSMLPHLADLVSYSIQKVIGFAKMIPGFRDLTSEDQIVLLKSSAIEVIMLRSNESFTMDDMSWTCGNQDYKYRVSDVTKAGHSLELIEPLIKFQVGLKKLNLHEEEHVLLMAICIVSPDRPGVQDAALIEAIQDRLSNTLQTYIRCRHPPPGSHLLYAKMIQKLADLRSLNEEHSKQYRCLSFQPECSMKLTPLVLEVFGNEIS
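Fluorescence polarization assay measuring small-molecule disruption of VDR binding to the coregulator peptide SRC2-3. Compounds were pin-transferred (23 nl) into the reagent mix and incubated 2 h at room temperature before reading.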
Numbers without * were called inactive; ? = inconclusive. On the % scale 0 is the no-effect control and ±100 the full control effect; potency means the concentration at half of the fitted maximal effect. Some of the compounds tested, so the mix of outcomes need not match the whole.

VDR inhibitor	Structure
-1%	COc1ccc(-c2noc(-c3ccccc3C(=O)NCC3CCCO3)n2)cc1 (stereo not drawn)
-19%	CCn1c(=O)c2sccc2n(Cc2ccccc2)c1=O
-15%	CN(C)C(=O)c1ccc(-c2nnc(NCc3ccccc3)c3ccccc23)cc1
2%	COCCn1c(=O)cnc2cnc(OCc3ccccc3)nc21
-4%	CCOC(=O)N1CCC(n2c(SCC(=O)Nc3ccccc3OC)nc3ccccc3c2=O)CC1
-9%	O=C(/C=C/c1ccccc1)Nc1ccc(NC(=O)c2cccs2)cc1
-6%	C[C@H]1COC(=O)CCCC/C=C\C[C@H](CC(=O)N(CCO)Cc2ccccc2)C(=O)N1
2%	CCn1ncc(CN2CCC(Oc3ccc(C(=O)N4CCCC4)cc3)CC2)c1C

The final five entries of the part above open the next one:
VDR inhibitor	Structure
2%	COCCn1c(=O)cnc2cnc(OCc3ccccc3)nc21
-4%	CCOC(=O)N1CCC(n2c(SCC(=O)Nc3ccccc3OC)nc3ccccc3c2=O)CC1
-9%	O=C(/C=C/c1ccccc1)Nc1ccc(NC(=O)c2cccs2)cc1
-6%	C[C@H]1COC(=O)CCCC/C=C\C[C@H](CC(=O)N(CCO)Cc2ccccc2)C(=O)N1
2%	CCn1ncc(CN2CCC(Oc3ccc(C(=O)N4CCCC4)cc3)CC2)c1C
-5%	Fc1ccccc1OCCSc1nc2ccccc2o1
15%	COc1cccc(NC(=O)c2oc3ccccc3c2NC(=O)C2CCCCC2)c1
10%	N#Cc1nc(-c2cccs2)oc1NCC1CCCO1 (stereo not drawn)
-10%	CC(=O)N1C[C@H]2CON(C)[C@H]2C[C@H]1c1cccc(-c2ccccc2C)c1
-18%	COc1ccc(NC(=S)N(CCCN2CCOCC2)Cc2ccco2)cc1
-5%	COC(=O)COc1ccc(-c2nnc(Nc3ccc(O)cc3)c3ccccc23)cc1
12%	O=C(Cn1ncc2c3ccccc3n(Cc3ccccc3)c2c1=O)NCCc1ccc(Cl)cc1
-13%	S=C(NCc1ccco1)Nc1ccc(Cl)c(Cl)c1

The listing continues.
VDR inhibitor	Structure
-16%	CCN(CC)S(=O)(=O)c1ccc2oc(C(=O)NCCN3CCOCC3)c(C)c2c1
-2%	NC(=O)Nc1ccc(C(=O)OCC(=O)NC2CCCc3ccccc32)cc1 (stereo not drawn)
-26%	O=C(CC1C(=O)NCCN1Cc1ccccc1C(F)(F)F)NC1CCCCCC1 (stereo not drawn)
-3%	Cc1ccc2c(Cl)cc(Cl)c(OCC(=O)Nc3cc(S(=O)(=O)N(C)C)ccc3C)c2n1
-20%	COc1cccc(/C=C2\SC(N3CCCC(C)C3)=NC2=O)c1OC (stereo not drawn)
1%	O=C(c1ccccc1F)N1CCN(Cc2ccccc2F)CC1
8%	Cc1cc(C)cc(N2Cc3ccccc3C2)c1
5%	Cc1ccc(C)c(Nc2nn3c(=O)c4ccc(C(=O)NC5CCCCC5)cc4nc3s2)c1

The list goes on (4 carried over from the part before).
VDR inhibitor	Structure
-20%	COc1cccc(/C=C2\SC(N3CCCC(C)C3)=NC2=O)c1OC (stereo not drawn)
1%	O=C(c1ccccc1F)N1CCN(Cc2ccccc2F)CC1
8%	Cc1cc(C)cc(N2Cc3ccccc3C2)c1
5%	Cc1ccc(C)c(Nc2nn3c(=O)c4ccc(C(=O)NC5CCCCC5)cc4nc3s2)c1
15%	COc1ccc(CCn2cc(C#N)c(=O)[nH]c2=O)cc1OC
-9%	CC1(C)CC(=O)C(C#N)=C(NCCCO)C1
?	COc1cccc(/C=N/c2nc3ccccc3n2C)c1O
26%	N#CCCn1cc(C(=O)Nc2ccc(C(=O)O)cc2)c(-c2ccc([N+](=O)[O-])cc2)n1
-3%	O=C(CSc1nc(=O)n(Cc2ccccn2)c2c1CCC2)Nc1ccc(F)cc1F
-4%	CCCCc1ncc(CN2CCC(n3nccc3NC(=O)C(OC)c3ccccc3)CC2)[nH]1 (stereo not drawn)
14%	COc1ccc(N(C)S(=O)(=O)c2ccc(Cl)c(C(=O)NCCc3ccc(Cl)cc3)c2)cc1
-1%	NC(=O)NC(=O)Nc1ccccc1Cl

Following part:
VDR inhibitor	Structure
-14%	NC(=O)C1CCN(C(=O)COc2ccc3c4c(c(=O)oc3c2)CCCC4)CC1
-7%	O=C(CN1C(=O)c2cccc3cccc1c23)Nc1ccc(S(=O)(=O)N2CCOCC2)cc1
-9%	Cc1ccc(SC[C@H](c2ccccc2)N2CCN(CC(C)C)CCC2=O)cc1
-8%	C=CCn1c(SCC(=O)NCc2ccc3c(c2)OCO3)nc2scc(-c3ccccc3)c2c1=O
-1%	C#CCOCCOCCOCCNc1nc(N2CCN(C(=O)[C@H](CCCCN)n3cc(CN)nn3)CC2)nc(N2CCN(C(=O)[C@H](CCCCN)n3cc([C@@H](N)[C@H](C)CC)nn3)CC2)n1
-13%	COC(=O)c1cc(S(=O)(=O)N(C)C2CCCCC2)oc1C
11%	CCC(CC)C(=O)Nc1cc(-c2nc3cccnc3s2)ccc1C
-7%	O=C(CCc1c[nH]c2ccccc12)N1CCN(c2ccc(O)cc2)CC1

Remaining list, next part.
VDR inhibitor	Structure
-7%	CCOc1ccc(C(=O)NCC(=O)Nc2cc(C)ccn2)cc1OCC
14%	Cc1cnc(C(=O)OCC(=O)Nc2ccc(Cl)cn2)cn1
-6%	CCOC(=O)c1c(Nc2cccc(C)c2)nnc(-c2ccccc2)c1-c1ccccc1
-12%	COC(=O)N1C(=O)[C@](c2ccsc2)(C(C)C)N1C(=O)OC
-4%	CC(NC(=O)CCc1nnc(-c2ccc(-c3ccccc3)cc2)o1)c1nc2ccccc2[nH]1 (stereo not drawn)
4%	O=C(CSc1nc(O)cc(=O)n1C1CCCC1)Nc1cccc(Cl)c1Cl
6%	Cc1ccc(C(=O)N/C(=C/c2ccc(-c3cccc([N+](=O)[O-])c3)o2)C(=O)NCCCN(C)C)cc1
-21%	O=C(c1ccco1)N1CCN(C2CC(=O)N(c3ccc4c(c3)OCO4)C2=O)CC1 (stereo not drawn)

More compounds.
VDR inhibitor	Structure
21%	Cc1ccc(-n2nc(C)c3nc(CCC(=O)Nc4cccc(F)c4)c(=O)n(C)c32)cc1
-29%	O=C(CCNC(=O)c1ccco1)NCc1ccc(F)cc1
17%	Nc1ccc(-n2ccnc2)cc1
-10%	O=C(COC(=O)c1ccc(F)c(S(=O)(=O)N2CCOCC2)c1)NCc1ccccc1
-20%	O=C(COc1ccc2c(c1)C(=O)CC1(CCCCC1)O2)NCc1ccccc1
-11%	CCc1ccc(-c2ccc(C(=O)O)c(C)n2)cc1
35µM*	COc1ccc(-c2nc3ccccc3c(=O)n2NC(=S)N(C)C)cc1
7%	O=C(Cc1ccccc1)NCC(=O)N1CCc2ccccc2C1

Later entries:
VDR inhibitor	Structure
-8%	COc1ccc(NC(=S)N(Cc2cccc(Br)c2)CC2CCC(C(=O)O)CC2)cc1 (stereo not drawn)
?	OCCC1CN(Cc2ccc(F)cc2)CCN1CCCc1ccccc1 (stereo not drawn)
-3%	Cc1cccc(C(=O)NCCN2CCCC2)c1
7%	CCOC(=O)CCNC(=O)Nc1ccc2nc(C)n(Cc3ccccc3Cl)c(=O)c2c1
-1%	CCOc1ccccc1N1CCN(C(=O)CNC(=O)c2sc3ccccc3c2Cl)CC1
-8%	Cc1cc(C)c(C(=O)CSc2nc(C)cc(C)c2C(N)=O)c(C)c1
-9%	CCOC(=O)CSc1nnc(-c2ccco2)n1C
13%	O=C(O)C1CC=CCC1C(=O)NCCc1ccccc1 (stereo not drawn)

Additional records follow:
VDR inhibitor	Structure
5%	Cc1cc(C)c(C)c(S(=O)(=O)N2CCC(C(=O)N3CC(C)CC(C)C3)CC2)c1C (stereo not drawn)
12%	CN(C)c1ccc(C2C3=C(CCCC3=O)OC3=C2C(=O)CCC3)cc1
3%	COc1ccc(NC(=O)CSc2nc3nc(C)c(Cc4ccccc4)c(C)n3n2)cc1OC
-18%	Cc1ccc(N(Cc2ccccc2)C(=O)c2ccc(Cl)c(S(=O)(=O)N3CCOCC3)c2)cc1
-6%	CC(=O)Nc1ccc(S(=O)(=O)N2CCN(c3cnn(C)c(=O)c3Cl)CC2)cc1
-10%	CC(C)Cc1cc(C(=O)NCc2ccc(Cl)cc2)no1
10%	Cn1ncc(Cl)c1C(=O)N1CCc2ccccc21
-23%	O=C1N/C(=N\N=C\c2cccs2)SC1Cc1cccc(Cl)c1Cl (stereo not drawn)

Later entries
VDR inhibitor	Structure
0%	COc1ccc(OC)c(CN2CCN(S(=O)(=O)c3ccc(NC(C)=O)cc3)CC2)c1
9%	COc1ccc(N(Cc2cccs2)C(=O)COc2cccc(C)c2C)cc1
6%	Cc1cccc(NC(=O)C(CC(C)C)NC(=O)C2CCC(C)CC2)n1 (stereo not drawn)
-26%	CC(C)C[C@H](NC(=O)N1c2ccccc2NC(=O)[C@@H]1C(C)C)C(=O)N1CCC[C@@H]1C(=O)O
6%	COC(=O)c1cc(NC(=O)c2ccccc2)c(=O)oc1C/C=N\OCc1ccc(Cl)cc1Cl
-17%	O=C(CCl)N(CCCNC(=O)C(F)(F)F)c1ccc([N+](=O)[O-])cc1
-4%	C/C(=N/NS(=O)(=O)c1ccc(Cl)cc1)c1cccc(NC(=O)c2ccc(Cl)cc2Cl)c1
-6%	COc1cc(NC(=O)CSc2nc(C)c(C)c(C)n2)c(C)cc1[N+](=O)[O-]

The listing continues.
VDR inhibitor	Structure
?	O=C(NNC(=S)Nc1cccc(C(F)(F)F)c1)c1ccccc1Cl
-19%	Cc1nc(NC(=O)C(Cl)Cl)sc1C(=O)N(C)C
-6%	Cc1cc2ncn(CS(C)(=O)=O)c2cc1C
-7%	COc1ccc(-c2noc(CCC(=O)Nc3cccc(C)c3)n2)cc1
-15%	Cc1ccc(-c2noc(CCC(=O)NCCc3ccccc3Cl)n2)cc1
-16%	Cc1ccc(CN2CCN(/N=C/c3ccc(C(F)(F)F)cc3)CC2)c(C)c1
-25%	COc1ccc(C(=O)C2CCCN(C(=O)c3csc(C(C)=O)c3)C2)c(C)c1 (stereo not drawn)
-20%	CCOc1cc2[nH]c(=O)n(CCCCC(=O)NCc3ccco3)c(=O)c2cc1OCC

New compounds follow
VDR inhibitor	Structure
-2%	Cc1ccc(C)c(Cn2cc(CCC(=O)NC3CCCCC3)c3ccccc32)c1
12%	COCCNC(=O)c1c[nH]c2ccc(S(=O)(=O)N3CCOCC3)cc2c1=O
3%	CCOC(=O)C1CCN(CCC(=O)Nc2ccccc2OC)CC1
17%	C[N+](C)(C)CC(=O)N1CCN(c2ccc3ccccc3n2)CC1
-17%	COc1ccc(NCC(O)COc2ccc(C(C)(C)C)cc2)cc1 (stereo not drawn)
26%	COc1ccc(CN2[C@@H](CC(=O)O)c3cc(F)ccc3S2(=O)=O)cc1
2%	O=C(Cc1c(F)cccc1Cl)NCCCn1ccnc1
17%	COC(=O)[C@H](Cc1c[nH]c2ccccc12)NC(=O)Cc1c[nH]c2ccccc12

Continued; it opens with the 3 that closed the last part.
VDR inhibitor	Structure
26%	COc1ccc(CN2[C@@H](CC(=O)O)c3cc(F)ccc3S2(=O)=O)cc1
2%	O=C(Cc1c(F)cccc1Cl)NCCCn1ccnc1
17%	COC(=O)[C@H](Cc1c[nH]c2ccccc12)NC(=O)Cc1c[nH]c2ccccc12
-4%	O=C(NCCCN1CCOCC1)C(=O)NCc1ccco1
7%	Cc1cccc(-c2cnn(-c3ccccc3)c2N)c1
0%	CC(C)C[C@H](NC(=O)c1ccc(NCc2cnc[nH]2)cc1-c1cccc2ccccc12)C(=O)O
6%	CC1Cc2ccccc2N1C(=O)CCNS(=O)(=O)c1cccc2nsnc12 (stereo not drawn)
10%	O=C(Cn1nc(-c2nn(CC(=O)c3ccccc3)c3[n+]2CCCCC3)[n+]2c1CCCCC2)c1ccccc1
89µM*	Cc1ccc(NC(=O)c2sc(=S)n(-c3cc(C)ccc3F)c2N)cc1
1%	CCC1CN(C(=O)N2CCC(C(=O)NCCc3ccccc3C)CC2)c2ccccc2O1 (stereo not drawn)
8%	COc1ccccc1NC(=O)CN1C(=O)C2(OCCCO2)c2ccccc21

Additional entries follow.
VDR inhibitor	Structure
-19%	COc1ccc(CC(=O)NCc2ccco2)cc1OC
6%	O=C(CN1CCCCC1)Nc1cc(Cl)ccc1Cl
-6%	Cc1ccc(Sc2c(C)nn(C(=O)COc3ccccc3Br)c2C)cc1
17%	CC1C/C(=N/Nc2ccc([N+](=O)[O-])cc2[N+](=O)[O-])CC(C)(C)C1 (stereo not drawn)
-4%	CCC(CC)C(=O)Nc1ccc2nc(SCC(=O)N3CCOCC3)sc2c1
0%	O=C(c1ccncc1)N1CCN(S(=O)(=O)c2ccc(OC(F)(F)F)cc2)CC1
8%	O=C1CCCC2=C1C(c1ccc(O)cc1)c1c(ccc3ccccc13)N2 (stereo not drawn)
11%	CC(Sc1nnc(-c2ccccc2F)n1N)C(=O)NCC1CCCO1 (stereo not drawn)

New compounds follow.
VDR inhibitor	Structure
18%	Cc1cc(=O)oc2cc(OCC(=O)N/N=C/c3cc([N+](=O)[O-])ccc3O)ccc12
-7%	Cc1ccc(C2=NC3(CCCCC3)N=C2SCC(=O)Nc2ccc3c(c2)OCCO3)cc1
3%	CSc1ncccc1C(=O)Nc1cccc(S(=O)(=O)N2CCOCC2)c1
5%	Cc1ccc(S(=O)(=O)Nc2ccc3c(c2)c(C(=O)OC(C)C)c(C)n3S(=O)(=O)c2ccc(C)cc2)cc1
-4%	Cc1occc1-c1nnc(SCC(=O)N2CCCCC2C)o1 (stereo not drawn)
-8%	COc1ccc(NC(=O)c2ccc(Cc3ccc(C)cc3)o2)cc1
0%	O=C1c2ccc3c4c(ccc(c24)C(=O)N1c1ccc2ccccc2c1)CC3
-16%	Cc1cc(OC(C)C(=O)NCc2ccccn2)c2c(C)cc(=O)oc2c1 (stereo not drawn)

(continued)
VDR inhibitor	Structure
4%	CCCC(=O)Nc1ccc(NC(=S)NC(=O)c2ccccc2[N+](=O)[O-])cc1
-11%	CCCCCn1c(=O)[nH]c2cc(C(=O)Nc3cc(OC)cc(OC)c3)ccc2c1=O
15%	O=C(NC(=S)Nc1ccc(-c2ccccc2)cc1)c1ccccc1
-2%	COc1ccccc1Nc1nn2c(=O)c3ccc(C(=O)NCc4ccc(F)cc4)cc3nc2s1
